ALR inh = inhibitors of human ALR sulfhydryl oxidase, primary screen, biochemical, H2O2 detection, HRP-luminol luminescence, single point; 290,000 compounds, 3.8% hits; purified ALR, DTT oxidation; inhibition, % (no concentration beside the values); FAD-linked sulfhydryl oxidase ALR (Homo sapiens), P55789;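 active = mean and each replicate at 75% or more; inconclusive = only one of the two met; inactive = neither met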;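 also: stock transfer was 7.5 nL into about 7.5 µL; 0% = neutral wells and 100% = wells with inactivated enzyme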
Calb FLC = C. albicans growth inhibition with fluconazole, primary screen, CaCi-2 strain, Alamar Blue fluorescence; C. albicans CaCi-2 (fluconazole-resistant clinical isolate) + fluconazole, 48 h; growth inhibition, % (concentration not given with the values); 300,000 compounds, 0.57% hits; AID 1979, 2009;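 active = most replicates above 75%; inconclusive = exactly half above 75%; inactive = most below 75%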;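 also: all wells also contain fluconazole at 8 µg/ml as a sub-toxic cotreatment; 0% = median of DMSO wells and 100% = median of geldanamycin control wells; wells of about 8 µL received 7.5 nL stock; the first replicate is given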
B2AR ag = beta2AR agonists driving receptor internalization, primary screen, cell-based, FAP fluorogen, flow cytometry. AID 504454, 2011. response, % (concentration not given with the values). Am2.2-beta2AR cells; reference of the scale not given here. Beta-2 adrenergic receptor (Homo sapiens), P07550. 340,000 compounds, 0.43% hits;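 active = response above a set limit, near 3 SD of response in nonfluorescent compounds, cut at about 42% in these data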;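 also: stock transfer was 100 nL into about 11 µL; a reference agonist was the positive control; negative values mostly stem from fluorescent compounds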
Beta cell apopt = inhibitors of cytokine-induced beta cell apoptosis, primary screen, luminescence; INS-1E cytokine-induced death, ATP luminescence, 48 h; percent of positive-control rescue, neutral wells zero; protection from apoptosis, % (test concentration not listed); 300,000 compounds, 0.8% hits; AID 435005, 2010;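 active = all replicates at 75% or more, or half of them and the mean; inconclusive = half reach 75% but not the mean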;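 also: 0% = cytokine-treated negative control wells and 100% = positive control rescue; higher means more ATP so stronger rescue from cytokine killing; wells of about 40 µL received 100 nL stock; the first replicate is given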
LANA-H2B inh = blockers of LANA interaction with H2A/H2B – biochemical, FP readout, HTS, primary screen; cell-free LANA-H2A/H2B peptide, fluorescence polarization; inhibition, % (test concentration not listed); 320,000 compounds, 0.6% hits; AID 2629, 2010; in the data active = inhibition mostly above about 10%, no sharp cut-off; inactive = mostly below about 6.7%;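 also: stock transfer was 7.5 nL into about 10 µL; 0% = median of vehicle wells and 100% = median of positive control wells; one replicate is shown; the record names a cut of 25% in any replicate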
Target sequence (Q9QR71 whole entry, looked up): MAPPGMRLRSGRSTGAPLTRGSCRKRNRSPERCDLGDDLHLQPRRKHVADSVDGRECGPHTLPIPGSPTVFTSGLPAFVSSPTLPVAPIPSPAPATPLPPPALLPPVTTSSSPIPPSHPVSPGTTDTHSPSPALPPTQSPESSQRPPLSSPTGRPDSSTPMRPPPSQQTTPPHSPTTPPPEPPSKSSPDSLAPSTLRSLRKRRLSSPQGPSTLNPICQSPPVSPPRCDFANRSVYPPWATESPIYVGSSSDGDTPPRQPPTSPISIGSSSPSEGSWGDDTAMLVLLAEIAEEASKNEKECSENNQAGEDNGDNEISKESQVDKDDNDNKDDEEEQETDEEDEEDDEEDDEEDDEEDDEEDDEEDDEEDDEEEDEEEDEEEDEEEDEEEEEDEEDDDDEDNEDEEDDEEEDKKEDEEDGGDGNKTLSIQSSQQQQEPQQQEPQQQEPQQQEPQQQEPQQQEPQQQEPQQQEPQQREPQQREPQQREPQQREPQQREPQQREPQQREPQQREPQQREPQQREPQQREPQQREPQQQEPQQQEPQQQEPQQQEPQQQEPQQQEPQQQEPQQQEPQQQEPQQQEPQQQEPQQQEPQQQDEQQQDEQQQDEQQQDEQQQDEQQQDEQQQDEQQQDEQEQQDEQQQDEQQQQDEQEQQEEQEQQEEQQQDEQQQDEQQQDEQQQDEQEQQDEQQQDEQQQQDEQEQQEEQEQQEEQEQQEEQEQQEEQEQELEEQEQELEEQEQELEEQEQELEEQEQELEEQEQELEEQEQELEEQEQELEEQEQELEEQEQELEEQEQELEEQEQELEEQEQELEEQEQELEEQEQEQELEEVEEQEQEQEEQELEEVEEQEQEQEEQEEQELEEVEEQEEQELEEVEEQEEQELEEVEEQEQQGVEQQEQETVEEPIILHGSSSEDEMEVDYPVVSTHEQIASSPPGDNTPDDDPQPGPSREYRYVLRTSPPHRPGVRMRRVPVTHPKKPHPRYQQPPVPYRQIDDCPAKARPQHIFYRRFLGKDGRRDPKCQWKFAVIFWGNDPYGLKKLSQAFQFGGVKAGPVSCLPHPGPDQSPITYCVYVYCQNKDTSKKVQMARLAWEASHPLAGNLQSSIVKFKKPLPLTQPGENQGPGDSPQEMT
A1 inh = caspase 3/7 activation in MEF A1-2A-BIM cells, primary screen, A1 inhibitor project, cell-based, luminescence, HTS; Caspase-Glo 3/7 luminescence, 3 h; percent of clofoctol response, vehicle zero; caspase activation, % (no concentration beside the values); 330,000 compounds, 0.066% hits; AID 2462, 2010;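 active = over half of replicate activation scores above 10%, or exactly half above 10 with the replicate mean above 10; inconclusive = replicate mean below 10 yet half the replicates above 10; inactive = over half of replicates below 10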;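 also: wells of about 30 µL received 50 nL stock; many hits fall short of the cut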
Ecoli rRNA inh = reduced GFP signal of wild-type E. coli, primary screen, bacterial rRNA inhibitor project, GFP/RFP fluorescence, OD600, single point; E. coli WT GFP vs humanized-ribosome RFP mutants, 24 h; stronger effect = lower value; DMSO median 0, no signal -100; GFP signal change (wild-type ribosome), % (test concentration not listed); 350,000 compounds, 1.6% hits; AID 720706, 2013;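 active = significant combined selectivity score with lowered wild-type GFP, culture density cut under 30%, mutant RFP and density less affected; inactive = any of these conditions unmet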; also: one replicate is shown; some compounds called inactive have numbers as strong as hits
T cruzi repl = inhibitors of intracellular T. cruzi growth, primary screen, luminescence, NIH3T3 host cells; T. cruzi beta-gal in NIH3T3, 90 h; 300,000 compounds, 1.4% hits; AID 1885, 2009; inhibition, % (test concentration not listed);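 active = mean inhibition across valid replicates above about 55%, limit read from the data; inconclusive = mean below that limit but half or more replicates reach it; inactive = mean below it, under half of replicates reach it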;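 also: signal also drops with host cell toxicity which is not excluded here; 0% = plate median of DMSO wells and 100% = zero luminescence signal; higher percent means less beta-gal luminescence so fewer parasites; stock transfer was 50 nL into about 50 µL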
Ecoli rRNA inh OD600 = second read-out of Ecoli rRNA inh, no call of its own (marks repeat the call); OD600 change, %; measured here: OD600 growth;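 optical density of the mix in the first replicate; 0 = DMSO median and -100 = no signal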
Ecoli rRNA inh RFP = further read-out of Ecoli rRNA inh, marked with its call; RFP signal change, %; measured here: RFP humanized mutant strains;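 first replicate; 0 = DMSO median and -100 = no signal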
The depositor's hits bear a star; ? = inconclusive; . = no result given. This is a subset; the hit share may differ from the screen's.

SMILES	ALR inh	Calb FLC	B2AR ag	Beta cell apopt	LANA-H2B inh	A1 inh	Ecoli rRNA inh	Ecoli rRNA inh OD600	Ecoli rRNA inh RFP	T cruzi repl
Cc1c(-c2ccc(Cl)cc2)[n+](=O)c2c(n1[O-])CCCC2	-5	1	-4	-5	-0.1	-0.2	-7	-5	-4.9	-6
COc1ccc(C(=O)COC(=O)c2sc(C)nc2C)cc1OC	67	.	-4	1	-4.5	-3.3	-3	2	-0.4	.
CCn1c(CC(=O)Nc2ccc(C)cc2)nnc1SCC(=O)Nc1nc(C)cs1	-2	26	1	-3	-0.2	-0.7	.	.	.	-7
CCOC(=O)CN(c1ccccn1)S(=O)(=O)c1ccccc1	-15	-13	0	-8	-0.6	-0.2	.	.	.	0
CN(CCC#N)C(=O)c1cc2c(s1)-c1ccccc1SC2	-4	-5	-3	-9	-1.6	1.0	10	-16	-2.7	-14
C=CCn1c(SC(C)C(=O)Nc2ccc(Cl)cn2)nnc1C1CC1 (configuration not stated)	-2	7	-13	0	-2.2	-0.1	2	3	-1.8	-1
O=c1[nH]c(SCc2nc3ccccc3n2Cc2ccccc2)nc2ccccc12	.	0	-2	3	8.7	0.0	.	.	.	1
Cc1c(Nc2cc(=O)oc3ccccc23)c(=O)n(-c2ccccc2)n1C	-7	-13	5	-8	0.4	0.6	.	.	.	-6
CCOC(=O)c1cnc2nc(C)nn2c1N	-9	-7	-5	2	-1.9	0.1	.	.	.	-3
Cc1c(Br)c([N+](=O)[O-])nn1CC(=O)Nc1cccc2nonc12	-13	10	1	.	-3.3	-1.4	7	-1	4.9	16
COc1ccc(OCc2nc(-c3ccc(F)c(F)c3)cs2)cc1	-9	0	2	-6	-0.1	1.2	9	10	-2.8	5
COc1ccc(C(=O)/C=C/c2ccc3c(c2)OCCO3)cc1	95*	?	6	-3	-1.8	-0.3	-43	-50	-12	-12
COc1ccc(-c2csc(N(CCCN(C)C)C(=O)c3ccccc3F)n2)cc1	-4	-21	0	.	2.7	0.0	-24	-17	-4.5	47
CC(=O)c1cccc(CN2CCC(C(=O)Nc3ccc(Oc4cccnc4)cc3)CC2)c1	2	0	2	-2	-3.6	0.2	1	0	3.7	10
CC1CCN(CCCNC(=O)c2coc3nc4ccccc4nc23)CC1	35	-2	-1	1	1.6	-5.8	.	.	.	-5
O=C(Nc1nc(-c2ccncc2)cs1)C1COc2ccccc2O1 (configuration not stated)	-11	2	10	1	-1.1	0.3	-24	-34	-2.0	15
O=C(O)CCn1c(=O)[nH]c(=O)n(CCC(=O)O)c1=O	3	-10	-2	-2	2.1	1.0	14	17	0.0	9
O=C(COC(=O)c1cc[n+]([O-])cc1)Nc1ccc2c(c1)OCCO2	-4	-4	9	-6	-2.6	-0.2	.	.	.	3
O=C(c1ccccc1)N1N=C(c2ccco2)CC1c1cccs1 (configuration not stated)	-1	-3	3	1	-3.3	0.3	15	11	2.3	0
Cc1c(NC(=O)c2nn3c(c2Br)NC(c2ccccc2)CC3C(F)(F)F)c(=O)n(-c2ccccc2)n1C (configuration not stated)	-3	4	4	-7	-5.9	0.2	.	.	.	-10
CN(CCOc1ccc(Br)cc1)CC(=O)Nc1cccc(S(=O)(=O)NC2=NCCC2)c1	-7	-11	-7	-4	-0.9	0.0	-10	-15	7.8	-4
CCOC(=O)C1(CC2CCCCO2)CCN(S(=O)(=O)c2ccc(C)s2)CC1 (configuration not stated)	-9	-3	-7	-2	0.7	0.2	-1	2	3.1	-4
CCCC(=O)N1CCCC(c2nc(-c3cccs3)no2)C1 (configuration not stated)	-4	-3	2	-2	0.7	0.8	.	.	.	-2
CCC1(c2ccccc2)NC(=O)N(CC(=O)N(C)CC(=O)Nc2cccc(F)c2)C1=O (configuration not stated)	-4	5	0	-8	-0.4	-0.4	-1	-1	-0.6	-3
Cc1nnc(N/N=C/c2c(O)n(-c3cccc(C(F)(F)F)c3)c(=O)c3ccccc23)[nH]c1=O	?	46	.	-3	-7.1	-0.1	0	8	1.2	-12

Individual results from the entries so far.
Beta cell apopt result of COc1ccc(C(=O)COC(=O)c2sc(C)nc2C)cc1OC → 1
B2AR ag result of Cc1c(Br)c([N+](=O)[O-])nn1CC(=O)Nc1cccc2nonc12 → 1

(continued)
SMILES	ALR inh	Calb FLC	B2AR ag	Beta cell apopt	LANA-H2B inh	A1 inh	Ecoli rRNA inh	Ecoli rRNA inh OD600	Ecoli rRNA inh RFP	T cruzi repl
Cc1ccc(CNC(=O)c2cc(Cl)cc(Cl)c2)n1C	-10	-2	3	-2	1.5	0.3	2	0	0.3	-3
O=C(CN1C(=O)CCOc2ccccc21)Nc1cccc(S(=O)(=O)N2CCOCC2)c1	.	.	0	-3	0.9	-0.3	0	-1	-3.9	.
CCOc1ccc(N=Cc2c(O)n(-c3cccc(C)n3)c(=O)c3ccccc23)cc1	-11	?	4	2	-5.5	0.2	.	.	.	14
COc1ccc(S(=O)(=O)Nc2ccc(Cc3ccncc3)cc2)cc1OC	-4	0	-12	44	2.2	-0.7	1	-9	0.7	-8
CN1C(c2ccc(F)cc2)=CS/C1=C(\C#N)c1nnc2n1-c1ccccc1SC2	-5	13	4	-2	-4.5	-0.6	6	16	1.0	2
CCOc1ccc(N2C(=O)CC(N3CCN(C(=O)CN4CCCC4)CC3)C2=O)cc1 (configuration not stated)	-1	-7	6	0	1.3	-0.4	6	12	2.4	-15
COC(=O)c1ccc(NC(=O)c2ccccc2SC)cc1	-2	-17	-6	1	-7.9	0.4	.	.	.	-14
COc1ccc(N2CCN(C(=O)CSc3nnc4c(C)cc5cc(C)ccc5n34)CC2)cc1	-5	?	-6	3	3.2	-1.2	.	.	.	19
C=C1CCN(C(C(=O)OC)C(C)C)S(=O)(=O)c2ccc(F)cc21 (configuration not stated)	0	-9	1	-3	0.6	0.4	-3	-14	-7.2	-7
COc1ccccc1C(=O)NNC(=O)C(=O)Nc1ccc(C)cc1	.	-6	-1	-1	-4.0	-0.7	7	9	3.2	-10
CCCCn1c(N)c(N(CC)C(=O)CSCc2ccc(C)cc2)c(=O)[nH]c1=O	-1	-7	-4	-4	-6.4	-0.4	5	3	0.3	0
Cc1cccc(OCc2nc(-c3ccccn3)n[nH]2)c1	1	-9	-4	-12	2.3	0.5	.	.	.	-28
CCCCCCn1c(SCC(=O)c2ccccc2)nc2c1c(=O)[nH]c(=O)n2C	-11	-5	-18	3	-6.2	0.4	4	12	1.8	18
COc1ccc(S(=O)(=O)NCCCn2ccnc2)cc1C(C)(C)C	1	2	-2	-9	1.2	0.8	0	-1	1.3	-7
CCC(=O)N1CCC2(CC1)Oc1ccc(Cl)cc1C(=O)C21CC(c2ccc(Cl)cc2)=NO1 (configuration not stated)	1	-17	-4	-8	-1.6	0.1	2	3	0.9	22
CCSc1nnc(-c2cc(Br)ccc2NC(C)=O)c(=O)[nH]1	4	5	2	1	-1.7	0.8	10	5	1.2	-5
O=C(Cc1cccs1)Nc1nnc(SCC(=O)NC2CCCCC2)s1	.	-9	-4	0	-1.9	0.1	.	.	.	-1
Cc1ccc(C(=O)Nc2ccc(N3CCN(C)CC3)cc2)c(Cl)c1	-2	7	-6	2	-5.6	-0.8	12	11	-1.0	-8
COc1ccc(C(=O)OCC(=O)Nc2ccccc2)cc1[N+](=O)[O-]	-15	-1	-4	-3	-4.5	?	12	15	2.0	-4
Cc1cc(C)nc(NC(=O)c2ccc(Cl)cc2Cl)n1	.	4	-2	-3	.	-1.1	9	-1	1.2	2
COc1cc(/C=C/C(=O)OCC(=O)NCCC2=CCCCC2)ccc1O	99*	-12	-2	0	2.6	0.6	-20	-25	-2.1	-9
COc1ccccc1N1CCN(c2cc(C)nc3nc(C)nn23)CC1	-8	6	-1	-1	-0.4	-0.6	0	4	0.5	-6
COc1cccc(NC(=O)C2CCCN2C(=O)Nc2cccc(F)c2)c1 (configuration not stated)	-21	-2	1	-7	-4.4	-0.5	.	.	.	-3

Printed as active in ALR inh, of those listed so far:
mol | ALR inh | B2AR ag | LANA-H2B inh | A1 inh | Ecoli rRNA inh | Ecoli rRNA inh OD600 | Ecoli rRNA inh RFP
COc1ccc(C(=O)/C=C/c2ccc3c(c2)OCCO3)cc1 | 95* | 6 | -1.8 | -0.3 | -43 | -50 | -12
COc1cc(/C=C/C(=O)OCC(=O)NCCC2=CCCCC2)ccc1O | 99* | -2 | 2.6 | 0.6 | -20 | -25 | -2.1

Some of the entries above, reformatted:
Values run as follows: ALR inh | Calb FLC | B2AR ag | Beta cell apopt | LANA-H2B inh | A1 inh | Ecoli rRNA inh | Ecoli rRNA inh OD600 | Ecoli rRNA inh RFP | T cruzi repl
> CCOc1ccc(N=Cc2c(O)n(-c3cccc(C)n3)c(=O)c3ccccc23)cc1
 : -11 | ? | 4 | 2 | -5.5 | 0.2 | . | . | . | 14
> COc1ccc(S(=O)(=O)Nc2ccc(Cc3ccncc3)cc2)cc1OC
 : -4 | 0 | -12 | 44 | 2.2 | -0.7 | 1 | -9 | 0.7 | -8
> CN1C(c2ccc(F)cc2)=CS/C1=C(\C#N)c1nnc2n1-c1ccccc1SC2
 : -5 | 13 | 4 | -2 | -4.5 | -0.6 | 6 | 16 | 1.0 | 2
> CCOc1ccc(N2C(=O)CC(N3CCN(C(=O)CN4CCCC4)CC3)C2=O)cc1 (configuration not stated)
 : -1 | -7 | 6 | 0 | 1.3 | -0.4 | 6 | 12 | 2.4 | -15
> COC(=O)c1ccc(NC(=O)c2ccccc2SC)cc1
 : -2 | -17 | -6 | 1 | -7.9 | 0.4 | . | . | . | -14
> COc1ccc(N2CCN(C(=O)CSc3nnc4c(C)cc5cc(C)ccc5n34)CC2)cc1
 : -5 | ? | -6 | 3 | 3.2 | -1.2 | . | . | . | 19
> C=C1CCN(C(C(=O)OC)C(C)C)S(=O)(=O)c2ccc(F)cc21 (configuration not stated)
 : 0 | -9 | 1 | -3 | 0.6 | 0.4 | -3 | -14 | -7.2 | -7

Bioassay records: PubChem BioAssay, several laboratories
